Ecoli growth – E. coli growth inhibition, primary screen, OD600; actives 0.21% (n = 330,000); OD600 absorbance (concentration not given with the values); Escherichia coli growth, 23 h; stronger effect = lower value;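 active = OD600 absorbance below the run mean of sample wells minus 3.6 SD, in any replicate, cut at about 0.56 in these data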;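 note: stock transfer was 300 nL into about 60 µL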
The depositor's hits bear a star; & = joins results of further samples. These rows are one share of the data; count on the stated rates, not on these rows.

| no. | SMILES | Ecoli growth |
| --- | --- | --- |
| 1 | COc1ccc(C2CC(=O)C=C(C#CC(C)(C)C)C2)cc1 (stereo not given) | 0.64 |
| 2 | CCC(C)C(NC(=O)NCc1cccc(OC)c1)C(=O)OC (stereo not given) | 0.7 |
| 3 | CCOC(=O)C1C2COc3ccc(C)cc3C2N2C(=O)c3ccc(C)cc3NC(=O)[C@@]12C (stereo not given in full) | 0.69 |
| 4 | O=S1(=O)C2CC3C=C[C@@]2(CN1Cc1cccc(F)c1)O3 (stereo not given in full) | 0.71 |
| 5 | CC1CN(C(C)CO)C(=O)c2cccc(NC(=O)CCC(F)(F)F)c2OC1CN(C)Cc1ccc(Cl)c(Cl)c1 (stereo not given) | 0.73 |
| 6 | COC(=O)c1ccc(C(NC(=O)OCc2ccccc2)C(C)=CC(C)C(=O)NCc2ccc(-c3ccccc3)cc2)cc1 (stereo not given) | 0.72 |
| 7 | CC(C)NC(=O)N(C)CC1Oc2c(NS(=O)(=O)c3ccc(F)cc3)cccc2C(=O)N(C(C)CO)CC1C (stereo not given) | 0.72 |
| 8 | C#CCOCCOCCOCCNc1nc(N2CCN(C(=O)C(CCC(=O)O)n3cc(C(N)CO)nn3)CC2)nc(N2CCN(C(=O)C(Cc3ccc(O)cc3)n3cc(C(N)CC(C)C)nn3)CC2)n1 (stereo not given) | 0.67 |
| 9 | O=C1CCN(Cc2ccccc2)CCN1C(CO)c1ccccc1 (stereo not given) | 0.67 |
| 10 | O=C(NCc1nc2ccccc2[nH]1)C1=CC(c2coc3ccccc3c2=O)CC(OCCCCO)O1 (stereo not given) | 0.66 |
| 11 | COc1ccc(CC(N)C(=O)NC2C(CO)OC(n3cnc4c(N(C)C)ncnc43)C2O)cc1 (stereo not given) | 0.3* |
| 12 | C=C[C@@]1(C)CC(=O)[C@]2(O)[C@@]3(C)C(O)CCC(C)(C)C3C(O)C(OC(C)=O)[C@@]2(C)O1 (stereo not given in full) | 0.69 |
| 13 | CCC(=O)c1cn(C(CCC(OC)OC)CC(=O)OC(C)(C)C)cc1CC (stereo not given) | 0.65&0.66 |
| 14 | CC(=O)OC1C(OC(=O)CC(C)C)c2c(ccc3ccc(=O)oc23)OC1(C)C (stereo not given) | 0.68 |
| 15 | CC(=O)OC1CC[C@@]2(C)C(=CCC3C4CCC(C5(C)OCCO5)[C@@]4(C)CCC32)C1 (stereo not given in full) | 0.69 |
| 16 | CCOC1OC(C(=O)N2CCN(C)CC2)=CC(c2ccc(C(F)(F)F)cc2)C1CCCO (stereo not given) | 0.7&0.68 |
| 17 | O=C(NC(=Cc1ccc(Br)cc1)C(=O)N1CCOCC1)c1cccs1 | 0.67 |
| 18 | CC1CN(C(C)CO)C(=O)Cc2cc(NS(C)(=O)=O)ccc2OC1CN(C)CC1CC1 (stereo not given) | 0.68 |
| 19 | COC(=O)C1NC(C(NC(=O)COc2ccccc2)C(=O)Nc2ccc(OC)cc2)SC1(C)C (stereo not given) | 0.68 |
| 20 | CCOC1OC(C(=O)NCc2nc3ccccc3[nH]2)=CC(C2CCCCC2)C1CCCO (stereo not given) | 0.72 |
| 21 | C#CCNC(=O)C1=CC(c2ccc3c(c2)OCO3)CC(OCCCCO)O1 (stereo not given) | 0.64&0.66 |
| 22 | CC(C=Cc1ccccc1)=NNC(=O)CNC(=O)c1ccccc1F | 0.7 |
| 23 | COc1ccc(S(=O)(=O)Nc2cccc3c2OC(CN(C)C(=O)NC(C)C)C(C)CN(C(C)CO)C3=O)cc1 (stereo not given) | 0.71 |
| 24 | COC(=O)CN1C(=O)C2C(C)C3=C4C(CC(C(=O)OC)=CC(C(=O)OC)C4[C@@](C)(NC(=O)c4ccccc4)C3=O)C2C1=O (stereo not given in full) | 0.66 |
| 25 | O=C(Nc1ccccc1)C1=CC(c2ccc(Br)cc2)CC(OCc2ccc(CO)cc2)O1 (stereo not given) | 0.73&0.72 |
| 26 | Cc1ccc(C2C3C(=O)N(C)C(=O)C3[C@]3(Cc4ccccc4)C(=O)N(Cc4ccccn4)CC(=O)N23)o1 (stereo not given in full) | 0.7 |
| 27 | C#CCNC(=O)C1=CC(C2CC2)CC(OCc2ccc(CO)cc2)O1 (stereo not given) | 0.67 |
| 28 | COC(=O)C1C[C@@]2(O)C(O)C(O)C(O)CC2N1CC1CC1 (stereo not given in full) | 0.66 |
| 29 | CC1CN=C(Nc2ccccc2)N1CCCC1CCCC1 (stereo not given) | 0.65 |
| 30 | CC1CN(C(C)CO)C(=O)Cc2cc(NC(=O)CCC(F)(F)F)ccc2OC1CN(C)C(=O)NC1CCCCC1 (stereo not given) | 0.61 |
| 31 | C=CCC(CC(=O)OC(C)(C)C)C(=O)OCC1CCCN1C(=O)C(CC=C)CC(=O)NCCO (stereo not given) | 0.7&0.71&0.69 |
| 32 | Cc1cccc(C2C3C(=O)N(C)C(=O)C3C3C(=O)Nc4ccccc4C(=O)N32)c1 (stereo not given) | 0.64 |
| 33 | C#CCOCCOCCOCCNc1nc(N2CCOCC2)nc(N2CCN(C(=O)C(Cc3ccc(O)cc3)n3cc(C(N)CC(C)C)nn3)CC2)n1 (stereo not given) | 0.68 |
| 34 | O=C(C=Cc1ccco1)NC(=S)Nc1cc(C(F)(F)F)ccc1N1CCOCC1 | 0.65 |
| 35 | CCOC(=O)CN1C(=O)NC(c2ccccc2)C(C(C)=O)C1C (stereo not given) | 0.7 |
| 36 | CC(CO)NC(=O)C1CC1C(NP(=O)(c1ccccc1)c1ccccc1)c1ccccc1 (stereo not given) | 0.65 |
| 37 | CC(=O)OC1CC2CCC3C(CCC4(C)C3CC([N+]3(C)CCCCC3)C4OC(C)=O)C2(C)CC1[N+]1(C)CCCCC1 (stereo not given) | 0.66 |
| 38 | NC(=O)C1CC2(CC(c3cccc(NC(=O)CC(c4ccccc4)c4ccccc4)c3)=NO2)CN1C(=O)c1ccc(Cl)cc1 (stereo not given) | 0.74 |
| 39 | CCOC(=O)c1[nH]c(C)c(C(O)=C2C(=O)C(=O)N(CCN(C)C)C2c2ccncc2)c1C (stereo not given) | 0.68 |
| 40 | CCN1C(=NCCc2ccccn2)NC(c2cccc(F)c2)C(C(=O)OC)=C1C (stereo not given) | 0.68 |
| 41 | CCCCCC(=O)Nc1cccc(C2=NOC3(C2)CC(C(N)=O)N(C(=O)c2ccccc2C(=O)c2ccccc2)C3)c1 (stereo not given) | 0.68 |
| 42 | CC1CN(C(C)CO)C(=O)c2cccc(NC(=O)C3CC3)c2OC1CN(C)S(C)(=O)=O (stereo not given) | 0.67 |
| 43 | O=c1cc(-c2ccc(O)cc2)oc2c(C3OC(CO)C(O)C(O)C3O)c(O)c(C3OC(CO)C(O)C(O)C3O)c(O)c12 (stereo not given) | 0.7 |
| 44 | Cc1cccc(C2C3C(=O)N(Cc4ccccc4)C(=O)C3[C@]3(Cc4ccccc4)C(=O)N(c4cccc(F)c4)C(=O)N23)c1 (stereo not given in full) | 0.75 |
| 45 | O=C(Nc1ccccc1)C1CC=CC2CCN(Cc3ccc(Cl)c(Cl)c3)C(=O)C21 (stereo not given) | 0.69 |
| 46 | CC(C)(C)OC(=O)NC(C(=O)OC(C)(C)C)c1ccc2ccccc2c1 (stereo not given) | 0.71&0.71 |
| 47 | CCC(C)C(C(=O)NCCCCCCCCCCC(=O)N1CCNCC1)n1cc(CCCCCN)nn1 (stereo not given) | 0.69 |
| 48 | CCC(C)NC(=O)C(=Cc1ccco1)c1ccccc1 (stereo not given) | 0.68 |
| 49 | CCOC(=O)C1OC1C(=O)NC(CC(C)C)C(=O)NCCC(C)C (stereo not given) | 0.72 |
| 50 | COC(=O)[C@@]12CCCN1C(c1ccc(-c3ccc(C(C)=O)cc3)c(OC)c1)C1C(=O)N(C)C(=O)C12 (stereo not given in full) | 0.64 |
| 51 | CC=C(C)C(=O)Nc1cccc(C2=NOC3(C2)CC(C(N)=O)N(C(=O)CC(c2ccccc2)c2ccccc2)C3)c1 (stereo not given) | 0.67 |
| 52 | COc1ccc(S(=O)(=O)N(C)CC2Oc3c(NC(=O)Nc4c(C)noc4C)cccc3C(=O)N(C(C)CO)CC2C)cc1 (stereo not given) | 0.67 |
| 53 | Cc1ccc(C(=O)N2C3CN(C)C(=O)[C@@]2(Cc2ccccc2)C2C(=O)N(C)C(=O)C32)cc1 (stereo not given in full) | 0.67 |
| 54 | CC(C)CC(NC(=O)c1[nH]cnc1C(=O)NC(Cc1ccccc1)C(=O)OC(C)(C)C)C(=O)OCc1ccccc1 (stereo not given) | 0.73 |
| 55 | CC(=O)NC(=Cc1ccccc1)c1ccccc1 | 0.7 |
| 56 | C#CCOCCOCCOCCNc1nc(N2CCOCC2)nc(N2CCN(C(=O)CCCCCCCCCCNC(=O)C(CO)n3cc(CCCSC)nn3)CC2)n1 (stereo not given) | 0.68 |
| 57 | COC(=O)CC=CC(C)C(C=NOCC(C)C(OCc1ccccc1)C(C)C)NS(=O)(=O)c1ccc(C)cc1 (stereo not given) | 0.68 |
| 58 | COC1C=CO[C@@]2(C)Oc3c(C)c(O)c4c(O)c(c(C=NN5CCN(C6CCCC6)CC5)c(O)c4c3C2=O)NC(=O)C(C)=CC=CC(C)C(O)C(C)C(O)C(C)C(OC(C)=O)C1C (stereo not given in full) | 0.07* |
| 59 | O=C(NC1CCCCC1)C(O)C(O)C(=O)NC1CCCCC1 (stereo not given) | 0.67 |
| 60 | CCN1C(=O)C2C(c3ccc(C)cc3)N3C(=O)N(c4cccc(Cl)c4)C(=O)[C@@]3(Cc3ccc(Cl)cc3)C2C1=O (stereo not given in full) | 0.72 |

(more compounds)
| no. | SMILES | Ecoli growth |
| --- | --- | --- |
| 61 | NC(Cc1ccc(O)cc1)c1nnc(C(CO)NC(=O)C2CCNCC2)o1 (stereo not given) | 0.62 |
| 62 | CN(C)C=Cc1onc(-c2ccccc2Cl)c1C#N | 0.69 |
| 63 | CCOC(=O)C1C2COc3cc(OC)ccc3C2N2C(=O)CN(Cc3ccc(C)cc3)C(=O)[C@@]12C (stereo not given in full) | 0.7 |
| 64 | CCCN(CCC)C1=NC(=Cc2ccco2)C(=O)N1c1ccccc1 | 0.7 |
| 65 | COc1ccc(CN2CCC(=O)N(C(CO)CC(C)C)CC2)cc1 (stereo not given) | 0.67 |
| 66 | CC(O)Cc1cn(-c2cc3cc(C#Cc4ccsc4)ccc3oc2=O)nn1 (stereo not given) | 0.64 |
| 67 | COc1ccc2c(c1)C1C(CO2)C(c2ccccc2)[C@]2(C)C(=O)Nc3ccc(C)cc3C(=O)N12 (stereo not given in full) | 0.71 |
| 68 | CC(NC(=O)c1nc[nH]c1C(=O)NCCCCCNC(=O)OC(C)(C)C)C(=O)OC(C)(C)C (stereo not given) | 0.7 |
| 69 | C=CCOC(=O)C(=O)C=Cc1ccc2c(c1)Cc1ccccc1-2 | 0.68 |
| 70 | CC(C)(C)C1C=C(C(=O)NC2CC2)OC(OCCCCO)C1 (stereo not given) | 0.62 |
| 71 | C=CCN1C(Cc2ccccc2)COCCS1(=O)=O (stereo not given) | 0.72 |
| 72 | NC(=O)C1CC2(CC(c3cccc(NC(=O)COc4ccc(Cl)cc4)c3)=NO2)CN1C(=O)C(c1ccccc1)c1ccccc1 (stereo not given) | 0.69 |
| 73 | Cc1ccccc1N1CCN(S(=O)(=O)C[C@]23CCC(CC2NC(=O)C(N)CCS(C)(=O)=O)C3(C)C)CC1 (stereo not given in full) | 0.71 |
| 74 | Brc1ccc(C2CN3CCSC3=N2)cc1 (stereo not given) | 0.71 |
| 75 | CC(C)CC(N)c1cn(C(CCCCN)C(=O)N2CCNCC2)nn1 (stereo not given) | 0.68 |
| 76 | CCOC(=O)COc1ccccc1C=C1NC(=O)NC1=O | 0.67 |
| 77 | COc1ccc(S(=O)(=O)Nc2ccc3c(c2)C(=O)N(C(C)CO)CC(C)C(CN(C)C(=O)Nc2ccc4c(c2)OCO4)O3)cc1 (stereo not given) | 0.67 |

Some of these compounds in order of number of heavy atoms, ascending.
| no. | SMILES | Ecoli growth |
| --- | --- | --- |
| 55 | CC(=O)NC(=Cc1ccccc1)c1ccccc1 | 0.7 |
| 62 | CN(C)C=Cc1onc(-c2ccccc2Cl)c1C#N | 0.69 |
| 4 | O=S1(=O)C2CC3C=C[C@@]2(CN1Cc1cccc(F)c1)O3 (stereo not given in full) | 0.71 |
| 29 | CC1CN=C(Nc2ccccc2)N1CCCC1CCCC1 (stereo not given) | 0.65 |
| 59 | O=C(NC1CCCCC1)C(O)C(O)C(=O)NC1CCCCC1 (stereo not given) | 0.67 |
| 69 | C=CCOC(=O)C(=O)C=Cc1ccc2c(c1)Cc1ccccc1-2 | 0.68 |
| 9 | O=C1CCN(Cc2ccccc2)CCN1C(CO)c1ccccc1 (stereo not given) | 0.67 |
| 75 | CC(C)CC(N)c1cn(C(CCCCN)C(=O)N2CCNCC2)nn1 (stereo not given) | 0.68 |
| 21 | C#CCNC(=O)C1=CC(c2ccc3c(c2)OCO3)CC(OCCCCO)O1 (stereo not given) | 0.64&0.66 |
| 34 | O=C(C=Cc1ccco1)NC(=S)Nc1cc(C(F)(F)F)ccc1N1CCOCC1 | 0.65 |
| 18 | CC1CN(C(C)CO)C(=O)Cc2cc(NS(C)(=O)=O)ccc2OC1CN(C)CC1CC1 (stereo not given) | 0.68 |
| 53 | Cc1ccc(C(=O)N2C3CN(C)C(=O)[C@@]2(Cc2ccccc2)C2C(=O)N(C)C(=O)C32)cc1 (stereo not given in full) | 0.67 |
| 19 | COC(=O)C1NC(C(NC(=O)COc2ccccc2)C(=O)Nc2ccc(OC)cc2)SC1(C)C (stereo not given) | 0.68 |
| 63 | CCOC(=O)C1C2COc3cc(OC)ccc3C2N2C(=O)CN(Cc3ccc(C)cc3)C(=O)[C@@]12C (stereo not given in full) | 0.7 |
| 5 | CC1CN(C(C)CO)C(=O)c2cccc(NC(=O)CCC(F)(F)F)c2OC1CN(C)Cc1ccc(Cl)c(Cl)c1 (stereo not given) | 0.73 |
| 37 | CC(=O)OC1CC2CCC3C(CCC4(C)C3CC([N+]3(C)CCCCC3)C4OC(C)=O)C2(C)CC1[N+]1(C)CCCCC1 (stereo not given) | 0.66 |
| 43 | O=c1cc(-c2ccc(O)cc2)oc2c(C3OC(CO)C(O)C(O)C3O)c(O)c(C3OC(CO)C(O)C(O)C3O)c(O)c12 (stereo not given) | 0.7 |
| 38 | NC(=O)C1CC2(CC(c3cccc(NC(=O)CC(c4ccccc4)c4ccccc4)c3)=NO2)CN1C(=O)c1ccc(Cl)cc1 (stereo not given) | 0.74 |
| 72 | NC(=O)C1CC2(CC(c3cccc(NC(=O)COc4ccc(Cl)cc4)c3)=NO2)CN1C(=O)C(c1ccccc1)c1ccccc1 (stereo not given) | 0.69 |
